Vif TR-FRET: HIV-1 Vif–A3G interaction blockers – biochemical, TR-FRET, GST-Vif 1-94, biotin-A3G peptide, dose response retest, primary screen (AID 1117319); TR-FRET GST-Vif / biotin-A3G peptide binding; higher % means a stronger effect; test concentration not given here; strong numbers were not always called active; inhibition, %; hits with a dose series show IC50 in µM; actives 0.57% (n = 260,000);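 active means above the screen mean plus three standard deviations and confirmed in dose response; inconclusive means results disagree or hit not tested in dose response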;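 further: Vif residues 1-94 fused to GST binding biotinylated APOBEC3G peptide 110-148; 0% = full assay without inhibitor and 100% = GST in place of GST-Vif; retest series ran down from 100 µM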
RanGTP-Impb inh: disruptors of Ran-importin-beta complex formation – biochemical, FRET, CFP-Ran, YFP-importin-beta, homogeneous, primary screen | actives 1.1% (n = 300,000) | cell-free CFP-Ran/YFP-importin-beta FRET ratio | inhibition, % (concentration not given with the values);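 active means most replicates above 15%; inconclusive means exactly half above 15%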;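 further: 0% = DMSO wells and 100% = Ran loaded with GDP instead of GTP; wells of about 40 µL received 100 nL stock; the first replicate is given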
AF4-AF9 inh: MLL-AF4/AF9 protein interaction inhibition; P42568; inhibition, % at 10 µM; AlphaScreen, biotin-AF4 peptide binding to FLAG-AF9; AID 651704; actives 0.47% (n = 350,000);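 active means every replicate reaching a set inhibition limit, whatever the replicate mean, cut at about 25% in these data; inconclusive means mean inhibition reaches that limit but some replicates miss it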;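 further: 0% = plate neutral control median and 100% = total signal loss; the record names both 10 and 1 µM as test concentration; the first replicate is given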
LANA-H2A inh: blocks KSHV LANA binding to histone H2A/H2B. Q9QR71. cell-free LANA-H2A/H2B peptide, fluorescence polarization. inhibition, % (test concentration not listed). actives 0.6% (n = 320,000). AID 2629; in the data active means inhibition mostly above about 10%, no sharp cut-off; inactive means mostly below about 6.7%;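 further: stock transfer was 7.5 nL into about 10 µL; 0% = median of vehicle wells and 100% = median of positive control wells; one replicate is shown; the record names a cut of 25% in any replicate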
Target sequence (Q9QR71 whole entry, looked up): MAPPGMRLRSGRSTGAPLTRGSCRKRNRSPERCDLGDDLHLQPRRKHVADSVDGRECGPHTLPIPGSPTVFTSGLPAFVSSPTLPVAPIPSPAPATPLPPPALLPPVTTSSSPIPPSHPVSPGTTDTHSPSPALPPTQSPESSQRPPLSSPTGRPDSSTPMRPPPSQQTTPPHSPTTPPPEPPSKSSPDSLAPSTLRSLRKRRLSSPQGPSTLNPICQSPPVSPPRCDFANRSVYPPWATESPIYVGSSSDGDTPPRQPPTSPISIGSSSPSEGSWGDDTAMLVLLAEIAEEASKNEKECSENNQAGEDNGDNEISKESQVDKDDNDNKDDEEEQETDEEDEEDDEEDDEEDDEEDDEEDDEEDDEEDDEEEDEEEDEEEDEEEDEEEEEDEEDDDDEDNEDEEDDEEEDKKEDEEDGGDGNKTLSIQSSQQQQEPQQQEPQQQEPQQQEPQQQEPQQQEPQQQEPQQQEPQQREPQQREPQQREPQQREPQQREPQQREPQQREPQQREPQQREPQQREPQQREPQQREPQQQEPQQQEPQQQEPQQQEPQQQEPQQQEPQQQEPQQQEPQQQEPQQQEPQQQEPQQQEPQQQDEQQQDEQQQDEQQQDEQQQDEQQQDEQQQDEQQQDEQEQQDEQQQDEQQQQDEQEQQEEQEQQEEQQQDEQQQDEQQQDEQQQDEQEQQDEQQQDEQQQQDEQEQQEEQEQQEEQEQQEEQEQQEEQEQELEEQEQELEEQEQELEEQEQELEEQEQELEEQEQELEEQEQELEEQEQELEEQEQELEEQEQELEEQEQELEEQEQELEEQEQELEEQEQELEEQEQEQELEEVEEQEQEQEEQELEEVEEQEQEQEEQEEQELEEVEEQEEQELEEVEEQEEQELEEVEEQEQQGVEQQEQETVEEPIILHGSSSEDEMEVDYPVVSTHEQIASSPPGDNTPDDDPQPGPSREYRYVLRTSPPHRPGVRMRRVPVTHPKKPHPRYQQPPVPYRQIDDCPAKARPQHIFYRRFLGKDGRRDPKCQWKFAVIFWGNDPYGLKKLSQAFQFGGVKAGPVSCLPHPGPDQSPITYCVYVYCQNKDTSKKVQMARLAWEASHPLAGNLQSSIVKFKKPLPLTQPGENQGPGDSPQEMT
Beta cell apopt: beta cell apoptosis inhibition; INS-1E cytokine-induced death, ATP luminescence, 48 h; percent of positive-control rescue, neutral wells zero; protection from apoptosis, % (test concentration not listed); actives 0.8% (n = 300,000);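 active means all replicates at 75% or more, or half of them and the mean; inconclusive means half reach 75% but not the mean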;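 further: 0% = cytokine-treated negative control wells and 100% = positive control rescue; higher means more ATP so stronger rescue from cytokine killing; wells of about 40 µL received 100 nL stock; the first replicate is given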
Calb FLC: C. albicans growth modulation with fluconazole; C. albicans CaCi-2 (fluconazole-resistant clinical isolate) + fluconazole, Alamar Blue growth, 48 h; growth inhibition, % (no concentration beside the values); actives 0.57% (n = 300,000);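 active means most replicates above 75%; inconclusive means exactly half above 75%; inactive means most below 75%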;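 further: all wells also contain fluconazole at 8 µg/ml as a sub-toxic cotreatment; 0% = median of DMSO wells and 100% = median of geldanamycin control wells; wells of about 8 µL received 7.5 nL stock; the first replicate is given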
Bfl-1 A1 inh: inhibitors of the anti-apoptotic protein A1, read as caspase activation. AID 2462. actives 0.066% (n = 330,000). caspase activation, % (test concentration not listed). MEF A1-2A-BIM cells, Caspase-Glo 3/7 luminescence, 3 h; percent of clofoctol response, vehicle zero;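 active means over half of replicate activation scores above 10%, or exactly half above 10 with the replicate mean above 10; inconclusive means replicate mean below 10 yet half the replicates above 10; inactive means over half of replicates below 10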;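 further: wells of about 30 µL received 50 nL stock; many hits fall short of the cut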
T cruzi inh: T. cruzi replication inhibition; actives 1.4% (n = 300,000); inhibition, % (no concentration beside the values); T. cruzi beta-gal in NIH3T3, luminescence, 90 h;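 active means mean inhibition across valid replicates above about 55%, limit read from the data; inconclusive means mean below that limit but half or more replicates reach it; inactive means mean below it, under half of replicates reach it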;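 further: signal also drops with host cell toxicity which is not excluded here; 0% = plate median of DMSO wells and 100% = zero luminescence signal; higher percent means less beta-gal luminescence so fewer parasites; stock transfer was 50 nL into about 50 µL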
The depositor's hits bear a star; ? = inconclusive; · = no result given; & = joins results of further samples.

SMILES	Vif TR-FRET	RanGTP-Impb inh	AF4-AF9 inh	LANA-H2A inh	Beta cell apopt	Calb FLC	Bfl-1 A1 inh	T cruzi inh
O=C(Nc1ccc(Cl)c(C(F)(F)F)c1)[C@@H]1CC=C[C@@H]2CCN(C3CCCCC3)C(=O)[C@@H]21	·	4.7	-2.2	-1.3	6	34	0.6	-25
Cn1nc(C(=O)NCC2COc3ccccc3O2)c2ccccc2c1=O (stereo not drawn)	3%	·	-5.1	-18	-6	·	0.1	·
Cc1nc(SCC(=O)N2CCNC2=O)c2ccccc2n1	-3%	·	-1.2	21*	-10	·	-1.4	·
Cc1ccc(S(=O)(=O)N(C)C)cc1NC(=S)N1CCCCC1CO (stereo not drawn)	17%	?	-4.7	-4.8	-7	1	0.4	-14
COc1ccc(CCNC(=S)NC2CCN(Cc3ccccc3)CC2)cc1	-3%	?	5.0	-2.2	4	-20	-0.3	-5
Cc1cc(C)cc(NC(=O)CSc2nc3ccccc3nc2N2CCCCC2)c1	·	-3.1	2.4	5.9	9	6	-0.5	8
CC(=O)Nc1ccc(S(=O)(=O)N(C)CC(=O)OCC(=O)NNC(=O)c2ccccc2F)cc1	2%	1.9	-4.1	0.8	4	3	0.8	17
Cc1c(NC(=O)c2cc3c(s2)-c2ccccc2OC3)cccc1[N+](=O)[O-]	8%	-0.2	·	-2.2	17	?	-0.2	37
Cc1ccc(C2=NCCn3c2c2ccc([N+](=O)[O-])cc2[n+]3[O-])cc1	·	-2.4	6.5	3.2	10	64	-0.3	30
COc1ccc(F)cc1S(=O)(=O)Nc1cc2c3c(c1)CCC(=O)N3CCC2	-2%	-0.3	-0.4	-6.6	·	12	1.1	-10
Cc1cc(C)cc(C(=O)N[C@@H](C)C(=O)N2CCC3(CC2)NCCc2[nH]cnc23)c1	·	3.3	-3.1	1.9	-4	-4	0.1	0
CCn1cc(CCC(=O)NC(C)c2ccccc2)c2ccccc21 (stereo not drawn)	3%	-3.2	-1.6	-1.7	0	-9	0.5	-21
CCN(CC(=O)Nc1cccc(F)c1)Cc1nc2ccccc2c(=O)[nH]1	6%	?	1.8	-4.4	-2	-8	0.6	-11
COc1cc(Cl)c(C)cc1NC(=O)CC1CCCC1	·	-2.5	1.9	0.7	-3	32	-0.1	-13
O=[N+]([O-])c1cccc(S(=O)(=O)N2CN(c3ccc(Br)cc3)c3nc4ccccc4nc32)c1	-10%	·	-1.6	1.9	3	·	0.5	·
Cc1onc(-c2ccccc2)c1C(=O)N1CCOC12CCN(c1cccc(F)n1)CC2	·	3.8	1.4	2.3	-1	6	-0.7	11
CCN1CCN(c2nc3ccccn3c(=O)c2C=O)CC1	-1%	110*	-1.2	3.0	-4	3	0.2	-11
C=CCn1c(CNC(=O)c2cccs2)nnc1SCC(=O)Nc1ccc(C(=O)O)cc1	10%	1.8	·	5.0	0	30	0.6	-9
CCN(CC(=O)Nc1ccccc1C(F)(F)F)C(=O)c1ccc(=O)n(Cc2ccccc2)n1	·	1.5	-0.7	-2.6	0	1	0.8	1
Cc1onc(-c2c(F)cccc2Cl)c1C(=O)Nc1sc2c(c1C(N)=O)CCC2	12%	61*	·	-5.8	4	-10	0.1	7
O=C(NCCS(=O)(=O)N1CCN(c2ccccc2F)CC1)c1cccc(Br)c1	·	-1.5	0.6	1.3	1	2	-0.2	5
Cc1ccccc1-c1nsc(SCC(=O)c2ccc(Cl)cc2)n1	·	3.2	-0.5	1.8	10	-5	-0.3	11
COCCNC(=O)CCn1nc(-c2ccc(Cl)cc2)ccc1=O	-3%	8.3	·	-1.3	-1	-2	0.0	0
Cc1cccc2[nH]c(CN(C)C(=O)C3CCC(=O)N(CCc4ccccc4)C3)nc12 (stereo not drawn)	0%	2.1	-1.5	1.6	-1	8	0.3	0
Cc1ccc(C(=O)N2CCSC2=S)cc1	9%	-1.5	-0.6	2.5	-5	1	0.3	-21
O=C(c1ccccc1F)N1CCN(S(=O)(=O)c2ccc(Br)cc2)CC1	1%	-2.8	·	4.1	1	-13	0.0	-15
Cc1cc(C)nc(NC(=O)CSc2nc3ccccc3s2)n1	1%	1.9	-5.6	-2.0	0	-10	-1.2	-4
CCOC(=O)C1=C(c2ccccc2)N=C2SCC(=O)N2C1c1ccc(OC)c(OC)c1 (stereo not drawn)	1%	2.5	·	11	-2	-1	0.1	-21
Cc1cccc(C)c1NC(=O)N1CCC(N2CCCCC2)CC1	5%	1.2	·	2.5	-4	-1	0.0	-3
C/C=C(\C)C(=O)OC1CC(C)(C)C[C@H]2C3=CC[C@@H]4[C@@]5(C)CCC(O[C@@H]6O[C@@H](C(=O)O)[C@@H](O)C(O[C@@H]7OC[C@H](O)[C@@H](O)[C@@H]7O[C@@H]7OC(CO)C(O)[C@@H](O)[C@@H]7O)C6O[C@@H]6OC(CO)C(O)C(O)C6O)[C@@](C)(CO)[C@@H]5CC[C@]4(C)[C@]3(C)CC(O)[C@@]12CO (stereo partly drawn)	·	·	4.2	-2.0	-1	·	0.4	·
CC(=O)C1=C(O)C(=O)N(Cc2ccccc2)C1c1cccs1 (stereo not drawn)	5%	1.2	·	-3.3	-3	-2	-0.2	-2
CC1CCN(S(=O)(=O)c2ccc(C(=O)Nc3nnc(C4CC4)o3)cc2)CC1	·	1.1	3.0	1.3	10	0	-0.1	-31
O=c1c2[nH]c3ccccc3c2ncn1C1CCCCC1	-7%	-0.7	·	-2.8	·	-2	-2.7	-1
Cc1cc(-n2c(C)cc(C(=O)CN3C(=O)C(=O)N(C)C3=O)c2C)no1	·	·	1.7	-0.8	-4	·	1.1	·
CC(C)NC(=O)NC(=O)COC(=O)c1ccc(S(=O)(=O)Nc2ccccc2)cc1	1%	-1.0	-1.1	3.2	-2	15	0.1	6
O=C(O)c1cn(-c2ccccc2)nc1C(=O)O	?	4.9	·	-0.4	-3	5	-1.8	-15
COc1ccc(C(=O)NNC(=O)CSc2nc3c(c(=O)n(C)c(=O)n3C)n2C)cc1	1%	1.1	0.0	1.4	4	-25	3.1	-5
O=C(N/N=C/c1ccc[nH]1)c1ccncc1	-11%	-2.4	-3.1	-0.6	·	-15	0.3	-1
CNC(=O)CO/N=C/c1ccc(N(C)C)cc1	·	4.5	0.0	-7.3	·	27	-0.4	-11
CCOc1ccc(OCC)c(NC(=O)CSc2nc3c(c(=O)n(C)c(=O)n3C)n2CC)c1	-1%&2%	0.1	·	-2.2	7	3	-1.0	3
O=C(NNC(=S)Nc1ccc(Cl)c(Cl)c1)c1ccccn1	3%	-3.5	1.1	1.2	78*	102*	0.5	62*
O=C(N/N=C/c1cccs1)c1c[nH]c2ccccc12	24%	-2.5	·	5.1	8	-2	-0.3	0
COc1ccc(Cl)cc1NC(=O)Cn1c(NCCO)nc2ccccc21	-10%	-2.2	-1.9	0.0	-1	-24	0.1	-1
O=C1[C@@H]2[C@H](C(=O)N1O)[C@H]1C=C[C@@H]2C1	4%	0.3	·	0.3	3	-7	-0.1	18
Cc1ccc(OC(=O)CCC(=O)OCCCC(F)(F)C(F)(F)F)cc1	7%	2.4	·	9.1	-2	1	0.7	-7
N#CCCC1CCCC=C1N(Cc1ccccc1)C(=O)C(Cl)Cl (stereo not drawn)	13%	0.6	·	2.4	-8	6	-0.2	-7
O=C(NNS(=O)(=O)c1ccc([N+](=O)[O-])cc1)c1ccc2ccccc2c1O	·	·	1.0	-0.1	2	32	-0.8	·
O=C1NC2(CCCCC2)NN1c1ccccc1	67%	-1.4	·	-0.6	-6	-32	0.3	5
Cc1ccc2nc(Nc3ccc(F)cc3)c3nncn3c2c1	-9%	-2.7	-0.2	-1.5	-10	0	0.3	14
COc1ccc(NC(=O)Cn2c(=O)oc3cc(Cl)ccc32)c(OC)c1	12%	7.2	4.9	2.5	-7	28	0.5	-14

Later entries.
SMILES	Vif TR-FRET	RanGTP-Impb inh	AF4-AF9 inh	LANA-H2A inh	Beta cell apopt	Calb FLC	Bfl-1 A1 inh	T cruzi inh
c1ccc2c(c1)CN1CCCC1=N2	2%	0.0	0.5	-3.5	-2	3	-0.1	13
Cc1ccc2c(c1)N(CCC(=O)NCC1CCCO1)C(=O)CO2 (stereo not drawn)	-7%	-0.5	·	-1.4	-4	-16	-0.2	-11
CCc1ccc(NC(=O)CSCCN2C(=O)c3ccccc3C2=O)cc1	·	-0.7	-1.1	-1.8	4	-12	0.7	-14
Cc1ccnc(NS(=O)(=O)c2ccc(NC(=O)CC(C)c3ccccc3)cc2)n1 (stereo not drawn)	3%	-1.3	-6.7	1.1	-5	-12	0.0	-11
O=C(Nc1ccc(N2CCCC2)c(Cl)c1)c1ccc([N+](=O)[O-])cc1	·	-0.3	-1.6	-5.8	8	-7	0.3	-2
COCCN(C(=O)c1sc2ccccc2c1Cl)c1c(N)n(CC(C)C)c(=O)[nH]c1=O	3%	·	-1.5	3.3	-2	·	0.0	·
COc1ccc(N2CCN(c3nc4c(c(=O)[nH]c(=O)n4C)n3Cc3cccc(C)c3)CC2)cc1	7%	0.8	·	3.5	12	-21	0.3	-3
O=C(O)Cc1ccc(NC(=O)Cc2ccc3ccccc3c2)cc1	·	5.9	-5.1	4.7	·	2	-0.3	-5
COCCOc1ccc(C(F)(F)F)cc1NC(=O)COC(=O)C12CC3CC(CC(O)(C3)C1)C2	·	-3.0	-1.7	-8.4	-7	-8	0.4	?
O=C(NS(=O)(=O)Oc1cccc(Cl)c1Cl)OC[C@@H]1CCCN2CCCCC12 (stereo partly drawn)	·	-4.5	1.8	2.6	3	-10	0.7	-11
COc1ccc(OC)c(NC(=O)CSc2nc3ccccc3cc2Cc2ccccc2)c1	2%	2.4	·	-3.1	-1	-8	0.0	10
Cc1ccc(S(=O)(=O)N2CCCCCC2)cc1[N+](=O)[O-]	2%	-1.5	5.9	1.4	-4	-3	0.7	10
COc1ccc(CCNC(=O)CCS(=O)(=O)c2cccc3nsnc23)cc1OC	-6%	2.3	·	4.3	-7	1	-0.4	-4
COc1ccc(S(=O)(=O)NCC(=O)NC2CC2)cc1OC	·	5.5	-0.1	0.7	-5	6	0.5	-15
CC(C)(CNc1ccc([N+](=O)[O-])cc1Cl)CNS(C)(=O)=O	?	1.3	·	5.3	1	7	0.5	1
COc1ccccc1N1CCN(C2CCCN(C(=O)CCc3ccccn3)C2)CC1 (stereo not drawn)	·	0.1	0.2	-4.0	-9	-31	-0.3	-13
COc1ccc(CN2CCN(C(=O)C3CCC(CNS(=O)(=O)c4ccccc4)CC3)CC2)c(OC)c1OC (stereo not drawn)	18%	-0.9	1.3	3.0	10	-1	-0.1	58*
O=C(NCc1ccccc1)c1ccc(/C=N/O)nc1	32%	0.3	·	0.0	·	6	0.5	-5
Cc1cc(Cl)nc(NC(=O)Nc2cccc(Cl)c2)n1	·	4.0	0.0	-1.2	-2	7	-0.8	3
CC(C)Cn1c(N)c(C(=O)COC(=O)CN2C(=O)C3CC=CCC3C2=O)c(=O)n(C)c1=O (stereo not drawn)	7%	-5.4	-2.4	-0.1	11	8	0.2	-24
COc1cccc(NC(C)C(=O)N2CC(C)OC(C)C2)c1 (stereo not drawn)	-6%	3.0	·	-4.2	-2	-5	0.2	-7

Assay outcomes: PubChem, several laboratories
